# D2 agonist: Beta-Arrestin HTS for Positive Allosteric Modulators of the Human D2 Dopamine Receptor: Agonists. DiscoveRx PathHunter D2 beta-arrestin, luminescence, 90 min; 100% = 57 uM dopamine signal. D(2) dopamine receptor (Homo sapiens), P14416. 360,000 tested, 0.084% active. activation, % (concentration not given with the values); in the data active = activation above about 40%; inconclusive = about 15% to 40%; inactive = below about 15%; also: compound concentration not given in the record; the text of the record calls up to 30% inactive
# Target sequence (P14416 whole entry, looked up): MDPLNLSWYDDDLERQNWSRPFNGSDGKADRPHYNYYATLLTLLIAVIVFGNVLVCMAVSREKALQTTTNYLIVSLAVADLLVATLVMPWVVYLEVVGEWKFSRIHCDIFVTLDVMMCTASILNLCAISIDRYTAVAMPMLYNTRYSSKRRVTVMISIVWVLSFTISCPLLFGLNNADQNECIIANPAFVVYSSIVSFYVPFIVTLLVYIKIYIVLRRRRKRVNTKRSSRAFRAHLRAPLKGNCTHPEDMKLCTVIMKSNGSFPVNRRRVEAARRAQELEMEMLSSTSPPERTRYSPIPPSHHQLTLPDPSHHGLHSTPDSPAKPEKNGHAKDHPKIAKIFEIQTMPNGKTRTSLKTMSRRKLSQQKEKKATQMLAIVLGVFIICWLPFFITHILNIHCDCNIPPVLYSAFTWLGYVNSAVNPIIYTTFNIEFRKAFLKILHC
#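 Agonist mode: compounds alone added to overnight-plated D2 PathHunter cells for 90 min at 37 C, with 57 uM final dopamine (EC100) defining full response. Beta-arrestin recruitment detected by chemiluminescent reagent, read after 1 h at ambient temperature.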
# Menin MLL FP FL: qHTS Assay for Inhibitors Targeting the Menin-MLL Interaction in MLL Related Leukemias: Competition With Fluorescein Labeled MLL-derived Peptide. Fluorescence polarization, fluorescein-MLL peptide displacement from menin. FP activity change, % at 61.4 µM. 290,000 tested, under 10 active. AID 1766, 2009; inconclusive = falling polarisation curve, or a change in total fluorescence; inactive = total fluorescence flat and polarisation flat or rising; no compound was filed as active; the % refers to the polarisation; negative = inhibition;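 also: % of control where 0% means no effect; inhibitors lower the polarisation; unlabelled MLL peptide was the positive control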
# ClpP mod: qHTS Assay for Activators of ClpP; ATP-dependent Clp protease proteolytic subunit (Bacillus subtilis (strain 168)), P80244; purified B. subtilis ClpP, FRET peptide cleavage, 20 min; Potency, µM (titrated, usually from 57.5 µM), for the others: at the highest dose activity change, negative = active; 340,000 tested, 1.9% active; active = well fitted falling curve with a large enough effect; inconclusive = small, poorly fitted or top-dose-only effect; inactive = no such curve, though single readings can be large or run the other way; also: potency is read from the fitted curve at half-maximal effect; the source files actives as falling curves though it sought activators and does not explain the sign; nearly all actives have a fitted effect of over 65% in size; many hits overshoot -100%
# Target sequence (P80244 whole entry, looked up): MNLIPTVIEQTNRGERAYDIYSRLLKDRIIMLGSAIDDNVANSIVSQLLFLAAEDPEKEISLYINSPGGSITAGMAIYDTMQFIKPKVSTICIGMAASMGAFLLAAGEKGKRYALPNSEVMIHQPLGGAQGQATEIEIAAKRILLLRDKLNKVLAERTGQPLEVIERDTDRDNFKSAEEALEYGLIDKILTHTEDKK
#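 FRET quenching reversal measured ClpP activation: 10 microg/mL B. subtilis ClpP at pH 8 with the FRET-FV decapeptide, read at 430 nm after 320 nm excitation. The 20-min minus 0-min signal was scaled between DMSO/no-enzyme wells and ADEP (5.8 microM final).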
# gsp antag: qHTS for Antagonists of gsp, the Etiologic Mutation Responsible for Fibrous Dysplasia/McCune-Albright Syndrome: qHTS; gsp-mutant cells, cAMP HTRF, 30 min; control for the full effect not named in the record; Potency, µM (titrated, usually from 76.9 µM), without a hit: at the highest dose activity change, negative = inhibition, hits mostly inhibitors; 340,000 tested, 0.4% active; AID 624288, 2012; active = falling curve of any shape with a large fitted effect; inconclusive = falling curve, mostly with a smaller effect; inactive = flat or rising curve; cell line not stated here;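 also: intracellular cAMP measured with PDE inhibitor Ro 20-1724 present during compound exposure; potency is read from the fitted curve at half-maximal effect; % is scaled to controls: 0 for no effect and ±100 for the full control effect; nearly all actives have a fitted effect of over 65% in size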
#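 HTRF cAMP read-out (cAMP-d2 plus anti-cAMP antibody-K in lysis buffer, 30 min RT). Before lysis, cells are exposed to compounds with […] for 30 min at 37C in DPBS containing Ca/Mg, BSA and Tween 20.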
# Sfp inh: qHTS Assay for Inhibitors of Bacillus subtilis Sfp phosphopantetheinyl transferase (PPTase); 4'-phosphopantetheinyl transferase ffp (Bacillus subtilis), Q9F4F7; Biochemical Sfp PPTase activity, qHTS; Potency, µM, without a hit: max response, negative = inhibition, most hits filed as inhibitors; 310,000 tested, 3.5% active; active = well fitted inhibition curve with a large enough effect; inconclusive = small, poorly fitted or top-dose-only effect, or another doubt; inactive = no such curve, though single readings can be large or run the other way;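 also: the enzyme is Sfp with the accession as filed and its product quenches rhodamine fluorescence; potency is read from the fitted curve at half-maximal effect; 0% = enzyme reaction without inhibitor and -100% = no enzyme wells; top concentration of the series not given in the record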
#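 With Hepes-Na pH 7.6 buffer containing 10 mM MgCl2, Sfp (15 nM) modified BHQ-2-YbbR (12.5 uM) using rhodamine-CoA (5 uM). Two reads 30 minutes apart at 525/598 nm yielded each well's rate.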
# PINK1 expr mod: A Quantitative High throughput Screen to Identify Chemical Modulators of PINK1 Expression. 410,000 tested, 0.2% active. AID 624263, 2012. Potency, µM (doses to about 76.6 µM), for the others: top-dose activation (PINK1 increase), actives largely listed as activators. PINK1 immunofluorescence, high-content cytometry, 24 h; active = well fitted activation curve with a large enough effect; inconclusive = small, poorly fitted or top-dose-only effect; inactive = flat fitted curve, though single readings scatter; cell line not stated here;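 also: potency is read from the fitted curve at half-maximal effect; % of control where 0% means no effect; nearly all actives have a fitted effect of over 65% in size; a mitochondrial uncoupler was the plate control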
#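 Decision-based qHTS: stable cells, 24 h exposure to five compound concentrations, CCCP as control. Fixed cells stained for PINK1 plus nuclear, mitochondrial and cell markers, cytometer read.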
# gsp agonist: qHTS for Agonist of gsp, the Etiologic Mutation Responsible for Fibrous Dysplasia/McCune-Albright Syndrome: qHTS | gsp mutant cells, cAMP HTRF, 30 min; control for the full effect not named in the record | Potency, µM (highest dose often 76.9 µM), without a hit: at the top dose activation (cAMP increase), actives largely listed as activators | 340,000 tested, 0.13% active | AID 624287, 2012; active = well fitted activation curve with a large enough effect; inconclusive = small, poorly fitted or top-dose-only effect, or another doubt; inactive = no such curve, though single readings can be large or run the other way; cell line not stated here;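 also: phosphodiesterase inhibitor Ro 20-1724 added with compounds to block cAMP breakdown; potency is read from the fitted curve at half-maximal effect; nearly all actives have a fitted effect of over 60% in size; about a fifth of the inactives were tested at one dose only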
#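 Cells in DMEM/10% FBS with G418 were pretreated with compounds in DMSO plus […] (300 uM stock) for 30 min at 37C. cAMP was measured by HTRF (cAMP-d2 plus anti-cAMP antibody-K) after 30 min at room temperature.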
# * hit, by the source's call; u = inconclusive; x = no result given; [ ] = dose if it differs, or a comment.
SMILES	D2 agonist	Menin MLL FP FL	ClpP mod	gsp antag	Sfp inh	PINK1 expr mod	gsp agonist
CC(C)CC(=O)Nc1c(C(=O)N2CCN(Cc3ccccc3)CC2)oc2ccccc12	3.6	0.1	-1.3%	5%	19%	1.6%	-66%[inhibitor]
O=C(CCn1c(=S)oc2ccccc21)NC1CCCCCC1	-1.7	0.1	2.3%	16%	15%	9.6%	-28%
O=C(c1cc(-c2cccnc2)nc2ccc(Cl)cc12)N1CCN(S(=O)(=O)c2cccs2)CC1	-1.6	x	-12%	-12%	7%	0.4%	12%[15.4 µM]
O=C(CN1CCN(c2ccccc2O)CC1)Nc1ccc(S(=O)(=O)N2CCCCCC2)cc1	6.1	x	-2.4%	-5%	x	5.1%	11%
CCOc1ccc(NC(=O)CCC(=O)NNC(=O)Nc2ccc(Cl)cc2)cc1	0.5	0.6	x	-3%	16%	0.0%	-9%[15.4 µM]
O=c1c2c3c(sc2n2cnnc2n1-c1ccccc1)N(Cc1ccccc1)CCC3	-1.6	-0.5	-29%	8%	u	u	2%
COc1cccc(NC(=S)N(CCCN2CCCC2)Cc2ccco2)c1	-4.1	-1.8	3.3%	14%	21%	-0.5%	1%
Cc1noc(C)c1CSc1nnc(-c2c[nH]c3ccccc23)n1-c1ccc(Cl)cc1	1.9	1.6	1.3%	-4%	-12%	11%	0%
NCCNC[C@@H]1COC2(CCCCCCCCCCC2)O1	-4.6	3.6	x	13%	-1%	-0.2%	4%
COC(=O)c1ccccc1NC(=O)Cn1nc(C(F)(F)F)c2c1CCC2	0.8	-2.5	-13%	-33%	8%	6.6%	-2%
CCN(CC)CCCN=Cc1c(O)n(-c2cccc(C)c2)c(=O)c2ccccc12	-3.8	3.8	-16%	-8%	0%	-0.5%	7%
CN(C)c1ncc2nc(-c3ccc(F)cc3)c(=O)n(C)c2n1	x	-2.0	x	x	22%	-0.6%	x
COc1ccc(OC)c2nc3c(cc12)CCC3	-2.1	-6.1	-15%	2%	-9%	1.3%	26%[15.4 µM]
CCOc1ccc2nc(Cl)sc2c1	-3.3	-1.0	0.0%	4%	-33%	1.4%	22%[15.4 µM]
COC(=O)c1sccc1NC(=O)Cc1ccc(OC)c(OC)c1	3.8	-3.9	-1.9%	-1%	u	4.5%	-5%

# Further results:
SMILES	D2 agonist	Menin MLL FP FL	ClpP mod	gsp antag	Sfp inh	PINK1 expr mod	gsp agonist
Nc1cc(=O)[nH]c(SCC(=O)Nc2cccc(S(=O)(=O)N3CCCCC3)c2)n1	-2.6	x	x	4%	x	-0.2%	1%
COc1ccc(-c2c(-c3cc(OC)cc(OC)c3)n(C)c3ccc(-c4ccc(SC)cc4)cc23)cc1	-1.7	x	-5.0%	9%	x	0.3%	x
CC(C)Cn1c(N)c(C(=O)CSc2nnnn2C)c(=O)n(C)c1=O	-2.0	0.4	2.5%	-12%	9%	0.4%	15%
O=C(CCNS(=O)(=O)c1ccccc1)Nc1ccccc1	-4.4	-2.0	0.8%	2%	1%	-1.7%	4%
COc1cccc(NC(=O)CNS(=O)(=O)c2ccc(Cl)cc2)c1	-2.4	-2.3	-2.8%	-10%	8%	-0.9%	8%[15.4 µM]
CCOc1ccc(/C(O)=C2/C(=O)C(=O)N(CCOCCO)C2c2cccnc2)cc1 (stereo not drawn)	-1.7	1.5	-17%	18%	22%	-0.8%	13µM*
CC1=C(C(=O)N(C(C)C)C(C)C)CC(CC(=O)NCCc2ccccn2)C(=O)N1Cc1ccccc1 (stereo not drawn)	2.8	x	1.0%	x	x	1.5%	-58%[inhibitor]
CCOC(=O)C1CCN(C(=O)Nc2ccc3nc(C)c(C)nc3c2)CC1	-2.5	2.0	13µM*	4%	19%	2.3%	u
O=C(NCCCN1CCOCC1)c1c(O)c2cc(Br)cc(Br)c2[nH]c1=O	-1.2	0.1	1.7%	27%	8%	1.0%	3%
Nc1c(-c2ccccc2)cnn1-c1cccc(Cl)c1	5.6	-5.0	0.3%	-22%	4%	4.7%	-28%[15.4 µM]
CCn1cc(S(=O)(=O)NCCc2ccc(OC)c(OC)c2)cn1	-5.9	1.0	0.9%	10%	15%	0.4%	-14%
CCNc1nc(Oc2ccc(OC)cc2)cc(C(F)(F)F)n1	0.5	-0.6	x	-3%	16%	5.8%	20%
COc1cccc(CNC(=O)Cn2ncc3c(=O)oc4ccccc4c32)c1	-2.7	4.6	-2.7%	9%	-25%	u	15%[15.4 µM]
Cc1ccc(S(=O)(=O)N2CCOCC2)cc1C(=O)Nc1ccccc1N1CCOCC1	-0.1	x	1.4%	17%	x	1.2%	6%
Cc1nn2cc(-c3ccc(Cl)cc3)nc2s1	-0.4	-0.9	-1.5%	-5%	10%	11%	2%

# Next section
SMILES	D2 agonist	Menin MLL FP FL	ClpP mod	gsp antag	Sfp inh	PINK1 expr mod	gsp agonist
COc1cccc(CNS(=O)(=O)c2ccc3c(c2)N(C(C)=O)CCS3)c1	2.0	x	2.2%	8%	5%	-0.4%	-2%
C=CCn1c(-c2cccs2)nc2nc3ccccc3nc21	-3.4	0.0	-0.8%	-1%	8%	-3.0%	18%
Cc1ccc(CS(=O)(=O)CCC(=O)NCCN2CCCCC2C)cc1 (stereo not drawn)	0.3	-3.1	-2.2%	13%	10%	3.9%	4%
O=C(Cc1c[nH]c2ccccc12)Nc1ccccc1N1CCOCC1	7.0	-1.2	x	3%	11%	-1.3%	-23%
CC(=O)N(c1ccc(C(C)C)cc1)C1C=CS(=O)(=O)C1 (stereo not drawn)	0.8	1.9	-15%	2%	-4%	-1.4%	-66%[inhibitor]
CN(CCC#N)C(=O)COC(=O)c1nn(-c2ccccc2)c(=O)c2ccccc12	-0.5	-3.5	x	-8%	23%	-2.1%	23%
CCOC(=O)c1sc(-c2ccccc2)cc1N	2.7	-0.9	u	-2%	-7%	-1.5%	-1%
O=C(Cc1ccccc1)NNC(=O)Nc1ccccc1	0.3	u	-1.1%	8%	23%	0.7%	7%[15.4 µM]
O=C(N[C@@H]1C/C=C\C[C@@H](CC(=O)N(CCO)Cc2ccccc2)C(=O)NC[C@H](c2ccccc2)OC1=O)OCC1c2ccccc2-c2ccccc21	-8.1	x	0.5%	u	x	8.8%	0%
COc1ccc(-c2nnc(OCc3ccccc3)c3ccccc23)cc1	6.3	-1.0	0.2%	u	-25%	9.4%	-16%[15.4 µM]
Cc1cc(C)n2cc(CSc3ncccc3C(=O)O)nc2n1	-3.9	-3.8	30%	9%	u	1.6%	4%
O=C(O)/C=C/C(=O)N1CCN(C(=O)/C=C/C(=O)O)CC1	-7.5	2.5	-2.6%	5%	2%	1.4%	14%[15.4 µM]
CC(=O)N1N=C(c2ccco2)CC1c1ccc(Br)cc1 (stereo not drawn)	-3.0	4.9	-4.4%	4%	0%	2.3%	0%[15.4 µM]
COc1ccc(C(=O)NC2CC3CCCC(C2)N3CC(C)C)cc1 (stereo not drawn)	-4.8	2.9	2.4%	-16%	28%	-0.1%	-25%[15.4 µM]
O=C(O)c1ccc(N/N=C/c2cn(-c3ccccc3)nc2-c2cccs2)cc1	-2.7	-0.1	x	-14%	u	2.5%	2%[15.4 µM]

# The list goes on.
SMILES	D2 agonist	Menin MLL FP FL	ClpP mod	gsp antag	Sfp inh	PINK1 expr mod	gsp agonist
COc1ccc(OC)c(NC(=O)Cn2c(CCC(=O)O)ccc2-c2cccs2)c1	1.5	0.3	-17%	-14%	-28%	-2.6%	-44%[inhibitor]
Nc1ccccc1C(=O)N1O[C@@H]2C=C[C@H]1C2	-0.8	x	4.7%	-8%	x	-0.8%	x
CCC(Sc1nc(C)cc(=O)[nH]1)C(=O)Nc1nc(-c2ccccc2)cs1 (stereo not drawn)	-1.3	2.5	0.7%	u	-3%	u	2%
C[C@H]1CN=C2N(CCNC(=O)CCC3CCCCC3)[C@H](Cc3ccc(O)cc3)CN21	-4.8	-3.1	0.3%	-1%	24%	3.6%	-2%
Cc1ccc2c(C)nc(N/C(N)=N/S(=O)(=O)c3ccc([N+](=O)[O-])cc3)nc2c1	2.7	8.2	-2.2%	-3%	25%	2.4%	8%
C=CCC[C@H](Cc1ccc(F)cc1)C(=O)OC[C@@H](NC(=O)[C@H](CC=C)CC(=O)NCCO)c1ccccc1	-1.9	x	1.1%	1%	x	-0.2%	10%
CCOc1ccccc1N1CCN(c2ncnc3scc(-c4ccc(OC)cc4)c23)CC1	-2.8	5.7	-16%	0%	-6%	6.9%	4%
O=C(Nc1cccc(S(=O)(=O)N2CCCCC2)c1)C1CC(=O)N(Cc2ccco2)C1 (stereo not drawn)	-3.6	-4.4	-0.7%	-30%	-10%	-0.3%	13%[15.4 µM]
COc1ccc(CNC(=O)CCCC(=O)Nc2cccc(Br)c2)cc1	-6.3	4.7	-1.4%	-1%	3%	0.0%	0%[15.4 µM]
C[C@]12CCC3C(CC=C4C[C@@H](O)CC[C@@]43C)C1CCC2[C@]1(C)CCC(=O)O1 (stereo partly drawn)	-3.1	-2.3	-15%	3%	26%	-3.7%	4%
O=C(COc1ncnc2cc([N+](=O)[O-])ccc12)NC1CCCCC1	5.6	5.2	-3.3%	3%	7%	0.1%	u
CC(=O)Nc1nonc1-c1nc2ccccc2n1CC1CC1	-0.9	4.2	u	-2%	9%	3.1%	-10%
O=C(NCC1(c2ccccc2)CCCC1)c1ccccc1	-3.4	-0.8	0.7%	-11%	7%	-0.2%	18%
COc1ccccc1C(=O)NC(=S)Nc1cccc2cc(O)ccc12	-6.7	x	9.1%	-14%	x	-0.1%	12%
